2A Renilla: FMDV 2A StopGo reporter, Renilla signal. HEK cells with a luciferase reporter of 2A StopGo recoding. Potency, µM (series often up to 57.5 µM), without a hit: top-dose signal change, negative = less light. hit rate 0.32% among 120,000. AID 1745857; active means well fitted falling curve with a large enough effect; inconclusive means small, poorly fitted or top-dose-only effect; inactive means no such curve, though single readings can be large or run the other way; also: nearly all actives have a fitted effect of over 55% in size; overnight with compound
StopGo FLuc: FMDV 2A StopGo reporter, firefly signal; Potency, µM (titrated, usually from 57.5 µM), for the others: at the top dose signal change, negative = less light; hit rate 0.23% among 120,000; HEK cells with a luciferase reporter of 2A StopGo recoding; active = well fitted falling curve with a large enough effect; inconclusive = small, poorly fitted or top-dose-only effect; inactive = no such curve, though single readings can be large or run the other way; also: nearly all actives have a fitted effect of over 60% in size; overnight with compound
Numbers without * were called inactive; ? = inconclusive; [ ] = dose if it differs, or a comment. % is scaled to controls: 0 for no effect and ±100 for the full control effect; potency is read from the fitted curve at half-maximal effect.

SMILES	2A Renilla	StopGo FLuc
Cc1cc(C2=NNC(=NC3CCCC3)SC2)c(C)n1C1CC1	-7%	153%[activator]
CN(Cc1ccco1)C(=O)c1cc2cc(Br)ccc2[nH]1	40%	8%
Cc1ccc(NC(=O)C(C)N(C)Cc2ccc3c(c2)OCCO3)cc1F (centres undefined)	5%	19%
CC[N+]1(C)CC2CCC(C)(C1)C2(C)C (centres undefined)	-1%	-8%
Cc1nc(SCC(=O)NCc2ccc(S(=O)(=O)N3CCOCC3)cc2)n(C2CCCC2)c1C	9%	-2%
O=C(CN(C1CCCCC1)S(=O)(=O)c1ccc(Br)cc1)Nc1ccc(F)cc1F	199%[activator]	2%
COc1ccc(OC)c(C(=O)c2c(N)c(-c3nc(-c4ccc(C)c(C)c4)cs3)c3ccccn23)c1	-9%	-3%
COc1ccc(C(=O)c2ccc(Br)cc2)cc1C	24%	105%[activator]
O=c1c2cnc(N3CCc4ccccc4C3)nc2ccn1-c1ccccc1F	18%	?
CCOc1ccc(/C=C/c2nc(C#N)c(NCCN3CCOCC3)o2)cc1	13%	22%
Cc1c(C(=O)N2CCC(C)CC2)c(S(=O)(=O)Nc2ccc(OC(F)(F)F)cc2)c(C)n1C	107%[activator]	-1%
CC(C(=O)Nc1ccc(F)cc1F)N1CCC(C(=O)NCc2ccccc2)CC1 (centres undefined)	-8%	5%
Cc1[nH]c2ccccc2c1C(=O)C(Cl)c1ccccc1 (centres undefined)	-20%	-7%
O=C(N/N=C1\CC2CCC1C2)c1ccccc1Br (centres undefined)	5%	18%
COc1cccc(NC(=O)C(=O)NCCc2sc(-c3ccc(Cl)cc3)nc2C)c1	16%	128%[activator]
CCCCn1c(=O)[nH]c(=O)c2c1nc(CSc1nnnn1-c1ccc(C)cc1)n2CC	-2%	14%
O=S(=O)(O)NCC(O)CCl (centres undefined)	7%	6%
CCOc1nc2ccccc2nc1N1CCC(C(=O)NCc2ccc(Cl)cc2)CC1	-5%	-5%
COc1ccc(NC(=O)CCS(=O)(=O)c2nc(-c3cccs3)cc(C(F)(F)F)n2)cc1OC	15%	?
CCCSc1nn(CCN(C)C)c2nc3sc4c(c3c(=O)n12)CCCCC4	-27%	-23%
CCc1ccc(NC(=O)C(=O)c2c(C)[nH]c3ccccc23)cc1	57%[activator]	81%[activator]
N#CCCNC(=O)CN1CCCC(c2nc3ccccc3o2)C1 (centres undefined)	-6%	-1%
CCN(CC)c1ccc(C=Nc2ccc(Nc3ccccc3)cc2)cc1	-17%	-5%
CCC(C(=O)Nc1ccc(N(C)C)cc1)n1nnc2ccccc2c1=O (centres undefined)	3%	0%
Clc1ccc(CO/N=C/c2ccc(OCc3ccccc3)cc2)c(Cl)c1	0%	96%[activator]
(next part)
SMILES	2A Renilla	StopGo FLuc
COc1cccc(C(=O)Nc2oc3ccccc3c(=O)c2-c2ccc(Cl)cc2)c1	112%[activator]	78%[activator]
Cc1ccc2[nH]cc(CCNC(=O)c3ccc(F)cc3)c2c1	6%	0%
COc1cc(C(=O)Nc2cc(C)ccc2OCc2cc(=O)n3cc(C)sc3n2)cc(OC)c1OC	4%	-3%
CCOc1ccc(OCCOCCOc2ccccc2)cc1	8%	18%
C=CCOC(=O)C1=C(C)OC(N)=C(C(=O)OCC)C12C(=O)Nc1ccccc12 (centres undefined)	15%	3%
CC(=O)Nc1cccc(OC(=O)C23CC4CC(CC(C4)C2)C3)c1	4%	5%
COc1ccc(C)cc1NC(=O)COC(=O)c1ccccc1C	9%	32%[activator]
COc1ccc(C(=O)NCc2ccc(-c3csc(C)n3)s2)cc1F	12%	27%
Clc1cccc(COc2cccc(-n3cnnn3)c2)c1	33%[activator]	58%[activator]
Cc1ccc(NC(=O)CCN=C2NS(=O)(=O)c3ccccc32)cc1Cl	108%[activator]	7%
CCC(=O)N(C)C(C)c1cccs1 (centres undefined)	6%	2%
CC(Oc1ccccc1Cl)C(=O)N1CCC(c2nc3ccccc3o2)CC1 (centres undefined)	9%	-8%
Cc1c(C(=O)NCCc2ccc(S(N)(=O)=O)cc2)sc2nc3n(c(=O)c12)CCCC3	-9%	-10%
CC1CC(=O)N(CC(=O)Nc2ccc(OC(F)(F)F)cc2)c2ccccc2S1 (centres undefined)	8%	-4%
CCOc1cccc(C(=O)Nc2nc3c(s2)CC(C(C)(C)C)CC3)c1 (centres undefined)	6%	50%[activator]
CC(=O)c1ccc(N2CCN(C(=O)Nc3cn(CC(C)C)c(=O)c4ccccc34)CC2)cc1	7%	15%
O=C(O)CSCc1ccccc1	-4%[1.06 µM]	4%
O=C1NC(CCc2ccccc2)C(=O)N1Cc1coc(-c2cccc(F)c2)n1 (centres undefined)	9%	18%
CCOc1ccccc1CNC(=O)c1sc2ncccc2c1-n1cccc1	44%[activator]	-10%
COc1ccc(C(=O)/C=C/c2ccccc2F)c(OC(=O)c2ccccc2Br)c1	15%	0%
CC(C)c1cc(C(N)=O)c(NC(=O)Cc2c(F)cccc2Cl)s1	63%[activator]	2%
Cc1ccc(NS(=O)(=O)c2ccc3c(c2)n(C)c(=O)n3C)cc1C	246%[activator]	61%[activator]
COc1cc(OC)c(C(=O)/C=C/c2ccc(C#N)cc2)cc1Cl	57%[activator]	49%[activator]
COc1ccccc1-c1c(NC(=O)c2ccco2)n(-c2ccccc2)nc(C)c1=O	13%	36%[activator]
CCCCN(CCCC)C(=O)C1CCN(S(=O)(=O)c2cccc3nsnc23)CC1	23%	3%
The results go on:
SMILES	2A Renilla	StopGo FLuc
Cc1ccc(OCC(=O)Nc2ccc3nc(SCc4ccccc4)sc3c2)cc1	-18%	-7%
CCc1ccc(C(=O)NCc2ccnc(N3CCN(C)CC3)c2)s1	-5%	8%
O=C(c1ccc(OCc2cn3ccccc3n2)cc1)N1CCN(c2ncccn2)CC1	-17%	57%[activator]
CCOc1c(OC)cc(Br)c2cc(C(=O)O)[nH]c12	9%	17%
COC(=O)c1sccc1S(=O)(=O)Nc1ccc(SC(F)F)cc1	154%[activator]	16%
CC1(C(=O)Nc2cccc3cccnc23)Cc2ccccc2C(=O)O1 (centres undefined)	15%	49%[activator]
Cc1ccc(-n2c(=O)c3ccc(C(=O)NCc4ccccc4Cl)cc3n(CC(=O)Nc3cccc(Cl)c3)c2=O)cc1	26%	-9%
Cc1ccc(Cl)cc1NC(=O)c1sc2nc(C)c(C)c(C)c2c1N	-7%	33%
CCC(=O)N1CCc2cc(S(=O)(=O)CCC(=O)N3CCN(c4ccccc4F)CC3)ccc21	-6%	-8%
COc1ccc(Cc2c(C)nn(-c3nc(C)c(C(=O)Nc4ccc(C)cc4C)s3)c2C)cc1	-8%	-14%
Cc1ccc(Cn2c(=O)n(Cc3ccccc3Cl)c(=O)c3ccccc32)cc1	-3%	-10%
Cc1cccc(N(Cc2cc3ccccc3[nH]c2=O)C(=O)c2cccc(Cl)c2)c1	-9%	-11%
COc1cccc(/C=C/c2nc(C#N)c(NCCN3CCOCC3)o2)c1	0%	11%
CCc1cc2c(cc3c(=O)n(CC(=O)NCCOC)nc(CC)n32)s1	-7%	1%
Cc1ccc(CN2CCCN(CC(=O)Nc3ccc(C)cc3C)S2(=O)=O)cc1	14%	-1%
O=C(Nc1ccc(-c2ccccc2)cc1)c1ccc(Cl)cc1Cl	19%	106%[activator]
CCc1ccccc1NC(=O)c1cc2sc(Cl)cc2n1CC	-7%	-20%
CC(C)C(NC(=O)c1ccc2c(c1)NC(=O)CS2)c1cccs1 (centres undefined)	0%	0%
Cc1nc2ccc(C(=O)N3CCCC3CN3CCCC3)cc2nc1C (centres undefined)	-11%	114%[activator]
Cc1cccc(CCNC(=O)c2cnc3c(C)cccn3c2=O)c1	0%	108%[activator]
Cc1cccc(CSCC(=O)N2CCCC2)c1	10%	93%[activator]
COc1cc2ccccc2cc1C(=O)Nc1ccc2oc(-c3ccc(F)cc3Cl)nc2c1	-13%	50%[activator]
CCCCCOc1ccc(C(=O)N2CCC(c3nc4ccccc4o3)CC2)cc1	0%	13%
Cn1c(-c2ccc(Br)cc2)cc2ccccc21	2%	118%[activator]
NS(=O)(=O)c1ccc(Br)c(C(=O)OCc2ccc(Cl)c(Cl)c2)c1	23%	16%

Full records from above. Screens in order: 2A Renilla | StopGo FLuc
`O=C(Nc1ccc(-c2ccccc2)cc1)c1ccc(Cl)cc1Cl` is entered as 19% | 106%[activator]
`CC1(C(=O)Nc2cccc3cccnc23)Cc2ccccc2C(=O)O1` (centres undefined) is entered as 15% | 49%[activator]
`NS(=O)(=O)c1ccc(Br)c(C(=O)OCc2ccc(Cl)c(Cl)c2)c1` is entered as 23% | 16%
`Cc1cccc(N(Cc2cc3ccccc3[nH]c2=O)C(=O)c2cccc(Cl)c2)c1` is entered as -9% | -11%
`Cc1cccc(CSCC(=O)N2CCCC2)c1` is entered as 10% | 93%[activator]

Four entries from above, field by field.
> O=C1NC(CCc2ccccc2)C(=O)N1Cc1coc(-c2cccc(F)c2)n1 (centres undefined)
  2A Renilla = 9%
  StopGo FLuc = 18%

> CCOc1ccccc1CNC(=O)c1sc2ncccc2c1-n1cccc1
  2A Renilla = 44%[activator]
  StopGo FLuc = -10%

> COc1ccc(C(=O)/C=C/c2ccccc2F)c(OC(=O)c2ccccc2Br)c1
  2A Renilla = 15%
  StopGo FLuc = 0%

> CC(C)c1cc(C(N)=O)c(NC(=O)Cc2c(F)cccc2Cl)s1
  2A Renilla = 63%[activator]
  StopGo FLuc = 2%

A different layout for part of the listing above.
Structure | 2A Renilla | StopGo FLuc
Cc1cccc(CSCC(=O)N2CCCC2)c1 | 10% | 93%[activator]
COc1cc2ccccc2cc1C(=O)Nc1ccc2oc(-c3ccc(F)cc3Cl)nc2c1 | -13% | 50%[activator]

Next part
SMILES	2A Renilla	StopGo FLuc
Cc1ccccc1NC(=O)C(=O)NCCc1csc2nc(-c3ccccc3F)nn12	-6%	13%
Cc1ccc(SC(=O)c2ccccc2Br)cc1	-27%	0%
Cc1ccc2sc(N(Cc3cccnc3)C(=O)C3COc4ccccc4O3)nc2c1C (centres undefined)	-4%	1%
O=[N+]([O-])c1ccccc1S(=O)(=O)NCc1cccs1	129%[activator]	10%
Cc1nn2c(=O)cc(COC(=O)c3ccc(NC(=O)c4cccs4)cc3)nc2s1	-6%	-28%
COc1ccc(NC(=O)[C@H]2C[C@@H]3CCCN3[C@]23C(=O)Nc2c(C)cc(Cl)cc23)cc1	4%	19%
Cc1ccc(O)c(NC(=O)c2noc3c2CCCCC3)c1	9%	89%[activator]
CS(=O)(=O)Cc1ccc(CNCc2ccccc2Cl)cc1	-12%	0%
Cc1n[nH]c(C)c1Br	6%	0%
CCCc1c(C)nc(Nc2nc(C)c3cccc(OCC)c3n2)[nH]c1=O	8%	14%
Cc1ccc(-n2c(SCC(=O)Nc3ccc(C(N)=O)cc3)nc3ccccc3c2=O)cc1	36%[activator]	28%
S=C(NCc1cccs1)Nc1ccc(Br)cc1	?	47%[activator]
O=C(CSc1nnc2c(=O)n(-c3ccc(F)cc3)ccn12)N1CCN(c2ccc(F)cc2)CC1	-16%	-8%
O=C(Cn1ncc2c([nH]c3ccccc32)c1=O)NCCCN1CCN(c2ccccc2)CC1	-3%	-17%
COc1ccccc1C(=O)N1CCCCC1CCN1CCOCC1 (centres undefined)	-5%	-8%
COc1ccc(C(=O)c2ccc(C)cc2)cc1	0%	35%[activator]
CNS(=O)(=O)c1ccc(NC(=O)c2nc3nc(C)cc(C(F)F)n3n2)cc1	-4%	5%
CCn1cnc2c1c(=O)n(CC(=O)N(C)C1CCS(=O)(=O)C1)c(=O)n2Cc1ccccc1 (centres undefined)	-13%	-11%
COC(=O)c1cc2oc3ccccc3c2n1CC(=O)Nc1ccc(C)c(F)c1	-9%	0%
CCN(C(=O)CSc1nc2ccccc2n1CC(=O)NCc1ccc(OC)cc1)c1ccccc1	80%[activator]	-7%
Cc1cc(C)c(NC(=O)C(C)n2c(=O)cc(C)c3c(C)nn(-c4ccccc4)c32)c(C)c1 (centres undefined)	-7%	-7%
Cc1ccc(S(=O)(=O)NCc2nc3nc(C)cc(C)n3n2)c(C)c1	-7%	0%
Cc1ccc(-c2nc(CS(=O)CC(=O)NCCc3ccc(Cl)cc3)c(C)o2)cc1 (centres undefined)	41%[activator]	-3%
C=CCOc1ccc(C=O)cc1	-9%[1.06 µM]	3%
COc1ccc(Br)cc1CNC(=O)c1cc2c(=O)n(C)c3ccccc3c2s1	-6%	-19%
Next compounds follow.
SMILES	2A Renilla	StopGo FLuc
CCn1cc(C(=O)OCC(=O)Nc2cc(OC)cc(OC)c2)c(=O)c2ccc(C)nc21	-2%	-5%
Cc1ccc2cccc(NC(=O)c3ccc(-c4cccc(Cl)c4Cl)o3)c2n1	-12%	6%
CCOc1ccc(NC(=O)c2c(NCc3cccnc3)sc3c2CCC(C)C3)cc1 (centres undefined)	10%	-19%
O=C(c1ccccc1Cl)N1CCCCC1CCN1CCOCC1 (centres undefined)	0%	1%
Cc1ccc(C)c(Cn2c(=O)n(CCCCCC(=O)NCc3ccc4c(c3)OCO4)c(=O)c3sccc32)c1	-11%	13%
CCc1nnc(SCc2ccc(F)cc2Cl)c2cc3sc(C)cc3n12	-10%	-7%
CCN1CCN(c2ccc(S(=O)(=O)N(CC)CC)cc2NC(=O)Cc2ccccc2C)CC1	2%	-8%

Screens: PubChem BioAssay, National Center for Advancing Translational Sciences (NCATS)

Not all compounds are listed; count on the stated rates, not on these rows.
